Source: PubChem (ICCB-Longwood Screening Facility, Harvard Medical School)
AID504770 = growth inhibitors of E. coli YBA685 in a screen for V. cholerae RctB (chromosome II replication) inhibitors. E. coli YBA685 rctB-dependent plasmid, OD600 growth, 3 h; stronger effect = lower value. z-score (no concentration beside the values). 130,000 compounds, 0.27% hits;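 active = z-score under -2 on both plates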;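 note: wells of about 30 µL received 100 nL stock; score is relative to mean and SD of the test wells; the first replicate is given; strong numbers were not always called active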
Ba CapD inh = inhibitors of Bacillus anthracis CapD enzyme | z-score (no concentration beside the values) | 140,000 compounds, 0.23% hits | purified CapD enzyme, fluorescence intensity read-out; stronger effect = lower value; some hits fall short of the stated cut;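 active = z-score under -4 in either of two replicates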;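 note: stock transfer was 100 nL into about 40 µL; score is relative to mean and spread of the plate; one replicate is shown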
Starred values were filed as active, the others as inactive; . = not tested or not shown; & = joins results of further samples.

Second line of a record: AID504770, Ba CapD inh
N#CCSc1nc2c(sc(=S)n2CCc2ccccc2)c(=O)n1Cc1ccco1
 : ., 0.18
Cc1ccc2c(c1)NC(=O)C(CC(=O)NCCN1CCN(c3cc(Cl)ccc3C)CC1)O2 (centres undefined)
 : 0, 0.475
COc1cccc(Sc2nc(SCc3ccccc3)nc3ccsc23)c1
 : ., 0.16
COc1ccc(-n2ncc3c(N4CCN(c5ccccc5F)CC4)ncnc32)cc1
 : ., 1.31
CCOc1ccc(-c2nc(=S)[nH][nH]2)cc1
 : -0.7, 4.21
CC(NC(=O)NCC1CCCO1)(C(F)(F)F)C(F)(F)F (centres undefined)
 : 0.35, 0.585
C=CCc1ccc(OCC(O)CN2CCN(c3ccccc3)CC2)c(OC)c1 (centres undefined)
 : 0.45, -0.675
COc1cc(C(C)=O)ccc1CN1CCOCC1
 : ., 0.245
CCC(=O)Nc1cccc(C(=O)N/N=C/c2cccc3c2OCO3)c1
 : ., 11
CCOC(=O)N1CCN(C2CCN(CC)CC2)CC1
 : 0.35, -0.13
COc1ccc2nc(C)cc(Oc3ccc4c(c3)OCO4)c2c1
 : -0.1, .
N#Cc1nc(Cc2ccccc2)oc1NCc1ccco1
 : 1.5, -0.1
CCOc1ccc(S(=O)(=O)NCCC(=O)N=c2sc3ccccc3n2C)cc1
 : 1.8, .
CN(Cc1ccccc1)C(=O)CCS(=O)(=O)c1ccc(Br)cc1
 : 0.15, -0.04
CC(C)c1ccc(C2C(C#N)=C(N)N3C(=C2C#N)Sc2ccccc23)cc1 (centres undefined)
 : ., 0.73
COc1ccc(C2C3=C(CC(c4ccco4)CC3=O)Nc3ccccc3N2C(=O)C(F)(F)F)cc1OC (centres undefined)
 : ., -0.235
COc1cc2ccc(=O)oc2cc1OC
 : -0.8, 60.1
CC(=O)N1CCC(C(=O)NCc2ccc(-c3cccs3)cc2)CC1
 : -0.5, 0.835
CCOc1cccc(C(=O)Nc2ccc(Cl)cn2)c1
 : -0.75, .
CCOC(=O)C1C(=O)CC(=O)C(C(=O)OCC)C1c1ccc(OC)cc1 (centres undefined)
 : -0.45, 0.22
CCOc1ccc(CCNC(=O)CN2C(=O)c3ccccc3C2=O)cc1OCC
 : 0.15, 0.025
CCSc1nnnn1-c1ccccc1
 : 1.55, -0.62
CCN(CCN(C)C)C(=O)c1cc2c(s1)-c1c(C)cccc1OC2
 : 1.25, 102
O=C(O)C1Cc2ccccc2CN1C(=O)CSc1nnc(-c2ccncc2)o1 (centres undefined)
 : 0.45, .
Cc1c(C(=O)N2CC(C)CC(C)C2)sc2ncnc(N3CCC(C)CC3)c12 (centres undefined)
 : ., -0.095
O=C(c1ccccc1)c1ccsc1
 : -0.6, -0.27
CC(C)(C)OC(=O)c1c(F)c(F)c(F)c(F)c1F
 : -0.6, -0.15
Nc1c2c(nc3cccc(F)c13)OCCC2
 : -0.4, 1.25
O=C(C1CCCO1)N1CCN(Cc2ccccc2F)CC1 (centres undefined)
 : -0.75, -0.2
Cc1sc(-c2ccc(Cl)cc2)nc1CC(=O)N1CCN(C(=O)OC(C)(C)C)CC1
 : ., 14
COC(=O)c1cn(-c2ccccc2)nc1C(=O)OC
 : -0.9, .
Cc1ccc(C(c2nnnn2C2CCCC2)N(C)C2CCCCC2)cc1 (centres undefined)
 : -0.7, .
O=C(O)C1CCC(c2ccccc2)CC1 (centres undefined)
 : -0.4, .
COc1ccc(OC)c(NC(=O)CSc2nc3n[nH]c(C)c3c(=N)n2-c2cc(Cl)ccc2C)c1
 : ., -1.77
Cc1cc(N)n(C)c(=O)c1
 : 1.1, .
CCCCN(C)C(=O)Cn1cc2c(n1)CCCCC2
 : 0.15, 0.055
O=S(=O)(CC1CC1(Cl)Cl)c1ccccc1 (centres undefined)
 : -0.5, -0.95
COc1ccc(C2=NN(S(=O)(=O)c3ccccc3)C(c3ccccc3OC)C2)cc1OC (centres undefined)
 : ., -0.51
Cc1c(C(=O)Nc2ccc3c(c2)OCO3)sc2ncnc(N3CCOCC3)c12
 : ., -0.035
CCn1cnc2c1c(=O)n(CC(=O)O)c(=O)n2Cc1ccccc1
 : 2.3, .
O=C(CN1CCN(C(=O)c2ccccc2)CC1)NCC(F)(F)F
 : 1, .
O=C(COc1ncnc2sccc12)NCc1ccccc1
 : -0.75, .
CSC1(N2CCc3ccccc3C2)NN=C(C)C(=O)N1 (centres undefined)
 : -0.2, .
CCOC(=O)c1ccc(NC(=O)CSc2ncnc3sc4c(c23)CCC4)cc1
 : ., 0.015
Cc1ccc(Nc2cc(C)nc(-c3ccccc3O)n2)cc1
 : 0.25, 0.015
CC(C)c1cc(C(=O)O)nc2ncnn12
 : 0.4, .
COc1cc(N(C)C)ccc1CN1CCC(NC(=O)c2ccc(NC(C)=O)cc2)C1 (centres undefined)
 : ., -0.395
CC(=O)Nc1ccc(Br)c(C)c1
 : ., -0.14
O=C1NN=C2C3CC(CC12)C1=NNC(=O)C1C3 (centres undefined)
 : -0.3, -0.08
CC1CCCCN1S(=O)(=O)c1ccc(C(=O)Nc2ccc3c(c2)C(=O)NC3=O)cc1 (centres undefined)
 : -0.8, .
O=C(CN(c1cccc(C(F)(F)F)c1)S(=O)(=O)c1ccccc1)Nc1cccc(Br)c1
 : ., -0.24
c1ccc(Nc2ncnc3cc(-c4ccccc4)sc23)cc1
 : 2.2, 4.05
CCN(C(=O)c1ccc(-n2cnnn2)cc1)C12CC3CC(CC(C3)C1)C2
 : -1.45, .
C=CCC1C=C(C=C)CC(CC=C)N1 (centres undefined)
 : -0.8, .
COc1ccc(-c2nnn(CC(=O)Nc3sc4c(c3C#N)CCCC4)n2)cc1
 : -0.55, .
CC(=O)Oc1ccccc1C(=O)N1CCC(c2c[nH]c3ccccc23)CC1
 : ., -0.475
Nc1cc(C(F)(F)F)ccc1N1CCCC1
 : ., 1.5
CC(NC(=O)c1ccc(Cl)cc1Cl)C(=O)NCc1ccco1 (centres undefined)
 : -1, 1.66
N#CC1(NC(=O)COC(=O)c2nccnc2N)CCCCC1
 : 1.4, .
COc1ccc(S(=O)(=O)CC(C)(O)CS(=O)(=O)c2ccc(OC)cc2)cc1
 : -0.4, 1.5

7 of these compounds, reformatted:
smiles	AID504770	Ba CapD inh
CC1CCCCN1S(=O)(=O)c1ccc(C(=O)Nc2ccc3c(c2)C(=O)NC3=O)cc1 (centres undefined)	-0.8	.
c1ccc(Nc2ncnc3cc(-c4ccccc4)sc23)cc1	2.2	4.05
CCN(C(=O)c1ccc(-n2cnnn2)cc1)C12CC3CC(CC(C3)C1)C2	-1.45	.
C=CCC1C=C(C=C)CC(CC=C)N1 (centres undefined)	-0.8	.
CC(=O)Nc1ccc(Br)c(C)c1	.	-0.14
CC(C)c1cc(C(=O)O)nc2ncnn12	0.4	.
CC(=O)Oc1ccccc1C(=O)N1CCC(c2c[nH]c3ccccc23)CC1	.	-0.475

Following part.
Second line of a record: AID504770, Ba CapD inh
O=S(=O)(c1cc(Cl)c(Cl)s1)N1CCN(CCC2CCCCC2)CC1
 : ., 0.375
CCOC(=O)c1sc2nc(SCC(=O)N(CC)CC)n(CCCN3CCCC3=O)c(=O)c2c1C
 : ., 0.66
NC(=O)CN1CCN(c2ccccn2)CC1
 : -0.85, 0.445
CCOC(=O)C(Oc1nc(OC)cc(OC)n1)c1ccc2c(c1)CCO2 (centres undefined)
 : ., -0.51
O=C(O)c1[nH]c2ccccc2c1CNCc1ccccc1
 : 0.05, 0.305
CCCCN(C)C(=O)CSc1nc(NCc2ccc(OC)cc2)c2ccccc2n1
 : ., -0.26
CC(C)CNS(=O)(=O)c1ccc(CCC(=O)NCc2ccncc2)cc1
 : -0.5, -0.615
O=C(O)CSc1ccccc1
 : 0.3, 0.3
CCOc1cc(C(=O)n2cc(C)cn2)cc(OCC)c1OCC
 : -0.7, 2.21
O=C(CCS(=O)(=O)c1ccc(Br)s1)Nc1cccc(C(F)(F)F)c1
 : -0.55, 0.205
OC(CN1CCNCC1)Cn1c2ccccc2c2cc(Br)ccc21 (centres undefined)
 : -0.7, -0.135
Cc1c(C(=O)NCCC(C)C)sc2ncnc(N3CCOCC3)c12
 : -0.3, 23
COc1cccc(C2C3(C#N)C(N)=NC(OC)(OC)C23C#N)c1 (centres undefined)
 : 0, 0.215
CCn1c2ccccc2c2cc(CN3CCC(NC(=O)OCc4c(C)noc4-c4cc(C)on4)C3)ccc21 (centres undefined)
 : ., 18.2
O=C(CSc1nnc(-c2ccoc2)c(-c2ccoc2)n1)c1ccc(N2CCCC2=O)cc1
 : 0.15, .
O=C(O)CS(=O)(=O)Cc1ccc(Cl)s1
 : 0.05, .
Cc1ccc2[nH]c(C)c(CC(=O)O)c2c1
 : -0.75, 0.415
COc1cc(OC)nc(CSc2ccc(NC(=O)c3ccc(-c4ccccc4)cc3)cc2)n1
 : ., 1.13
CC1=CCC2C(=O)N(c3ccc(Br)c(C)c3)C(=O)C2C1 (centres undefined)
 : ., 0.215
CCN(C(=O)CSc1ccc(Cl)cc1)C1CCCCC1
 : -0.5, -0.455
CCCNS(=O)(=O)c1cc2c3c(c1)CCC(=O)N3CCC2
 : 0.5, .
CC(NC(=O)c1ccccc1)C(=O)OCn1nnc2ccccc2c1=O (centres undefined)
 : 0, .
Cc1ccc(Sc2ncccc2NC(=O)c2cccs2)cc1
 : 0.35, 0.355
O=C(OCC1CCNCC1)c1ccc2c(c1)OCO2
 : -0.15, .
COc1ccc(C(=O)N2CCN(C(=O)CC3(CC(=O)O)CCCC3)CC2)cc1F
 : ., -1.02
O=C(Nc1ncn[nH]1)c1ccccc1CCc1ccccc1
 : -0.65, 0.29
CCCCCN=Cc1sc2ccc(OCC)cc2c1O
 : 0.95, -1.84&-1.39
c1ccc(CN2C3=NCCCN3c3ccccc32)cc1
 : -0.7, 0.18
CCOC(=O)C1CCN(c2nc(-c3cccc(C)c3)nc3ccccc23)CC1
 : ., 0.425
CCOC(=O)N1CCC(NC(=O)Cn2c(=O)oc3ccccc32)CC1
 : -1.2, -0.92
COc1cccc(C2=NOC(C(=O)NCc3ccccc3)C2)c1 (centres undefined)
 : 0.5, -0.32
O=C(COC(=O)c1ccco1)c1ccc(OC(=O)c2ccccc2)cc1
 : 2.2, -0.005
CCCn1c(=O)n(CC(=O)O)c2ccccc21
 : -0.65, .
CN1CC=C2C(C#N)=C(N)C(C#N)(C#N)C(c3cccc(O)c3)C2C1 (centres undefined)
 : ., -0.6
CCCn1c2ccccc2c2cnn(CC(=O)NCCCN3CCCC(C)C3)c(=O)c21 (centres undefined)
 : -0.05, 36.5
CCOc1ccc(S(=O)(=O)NC(=O)N(CC)Cc2cc3ccccc3o2)cc1
 : -0.65, .
COC(=O)C1=C(C)NC(=O)NC1c1cn(-c2ccccc2)nc1-c1ccc(Br)cc1 (centres undefined)
 : ., -0.65
c1ccc2sc3c(-c4ccncc4)sc4ccccc4[nH]c-3nc2c1
 : -0.4, -4.11*
CC(C)CNc1nc2c(N)ncnc2n1[C@H]1O[C@@H](CO)[C@H](O)[C@@H]1O
 : 0.85, 0.02
CCn1c(=O)cc(OCC(=O)NC2CCCC(C)C2C)c2ccccc21 (centres undefined)
 : -0.3, 0.92
COc1ccc2[nH]cc(CCNC(=O)OCCCCc3ccc([N+](=O)[O-])cc3)c2c1
 : ., 0.285
O=C(CN1CCN(c2ccc([N+](=O)[O-])cn2)CC1)Nc1ccc2c(c1)OCO2
 : ., -0.23
Cc1[nH]c2c(N(Cc3cccc(Cl)c3)C(=O)c3ccc(Cl)cc3Cl)cccc2c1C
 : ., -0.39
FC(F)(F)c1nc2c(cnn2Cc2ccccc2)c2nnnn12
 : -0.05, .
Cc1cc(C)c(C(=O)NCCN2CCCCC2)c(C)c1
 : -0.5, -0.815
Cc1ccc(OCc2nnc(SCC(=O)Nc3cccc(C(F)(F)F)c3)n2-c2ccccc2)c2c1CCC2
 : ., 0.07
Cc1ccc2c(CC(=O)O)cc(=O)oc2c1
 : -0.35, 1.35
O=C(COc1ccc2oc3ccccc3c2c1)NCc1ccc2c(c1)OCO2
 : -0.05, .
COc1ccc(CNC(=O)CSc2ncnc3nc[nH]c23)cc1
 : -0.05, .
O=S(=O)(c1ccc(Br)cc1)N1CCCc2ccccc21
 : 1.4, 2.69
O=S(=O)(c1ccc(Cl)cc1)n1ccc(C(F)(F)F)n1
 : 1.05, 0.085
CCCc1[nH]n(-c2ccc(F)cc2)c(=O)c1C=NCc1ccc(F)cc1
 : ., -0.515
COc1ccc(NC(=O)Cn2c(SCc3ccccc3F)nc3ccncc32)c(OC)c1OC
 : -0.25, 0.255
COc1ccc(C)cc1NC(=O)COC(=O)c1sc2nc(C)[nH]c(=O)c2c1C
 : -0.4, .
CN(C)c1ccc(-c2nc3cc(NC(=O)c4cccc(Br)c4)ccc3o2)cc1
 : ., 12
CCN1CCN(CCCNC(=O)COc2ccc3c(c2)C(=O)CC(C)(C)O3)CC1
 : -0.05, 27
O=C1CC(c2cccc(Oc3ccccc3)c2)c2cc(Br)c3ccccc3c2N1 (centres undefined)
 : ., 0.04
Cc1cc(C=C(C#N)C#N)c(C)n1CC(F)(F)F
 : 0.2, .
COC(=O)CNC(=O)c1cccs1
 : -0.1, .
Cc1ccc(-c2cc(C(=O)N3CCCC3)[nH]n2)cc1C
 : -1.1, 0.545

(list continues)
Second line of a record: AID504770, Ba CapD inh
CN(C)/C=C(\C#N)c1nnc(-c2ccccn2)n1C
 : 0.2, 0.73
O=C(NC1CCCCC1)c1ccc(Cn2cc(Br)cn2)o1
 : -0.45, 1.48
COc1ccc2nc(NN=c3c(=O)c4ccccc4c3=O)sc2c1
 : 0.9, .
Fc1cccc(Cl)c1-c1nnc2cccc(Cl)n12
 : ., 0.175

Copied from the list.
Result for `Fc1cccc(Cl)c1-c1nnc2cccc(Cl)n12` in Ba CapD inh: 0.175
Result for `O=C(NC1CCCCC1)c1ccc(Cn2cc(Br)cn2)o1` in AID504770: -0.45
